NPYLR7 ag = agonists of mosquito NPYLR7 receptor, primary screen, cell-based, Aedes aegypti, calcium fluorescence, mosquito biting behavior; Aedes aegypti neuropeptide Y-like receptor 7 (NPYLR7); HEK293T NPYLR7/Galpha15, GCaMP6s calcium fluorescence; activation, % at 10 µM; actives 0.15% (n = 270,000); in the data active = activation above about 40%;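 also: 0% = vehicle and 100% = reference agonist at the receptor; some compounds past the cut are filed as inactive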
NPYLR7 ag max-min = further read-out of NPYLR7 ag, marked with its call; activation, %; measured here: Max-Min RFU normalised activation; some inactives read as strong as hits;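 span of the calcium signal over five minutes; 0% = vehicle and 100% = native peptide agonist; compound fluorescence can raise it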
* marks the source's active call; other numbers are inactive results; & = joins results of further samples. The list is partial; the hit share may differ from the screen's.

SMILES	NPYLR7 ag	NPYLR7 ag max-min
CCC(C)N(Cc1ccccc1OS(=O)(=O)c1ccc(NC(C)=O)cc1)C(=O)c1ccco1 (centres undefined)	-8	-1
N#Cc1c(NC(=O)CN2C(=O)c3ccccc3C2=O)oc(-c2ccccc2)c1-c1ccccc1	1	-3
CCCCN(C)C(=O)c1nc2ccccn2c1CN(CC)Cc1ccncc1	21	2
Cc1ccn2c(NC(C)(C)CC(C)(C)C)c(-c3ccc(OC(=O)COc4ccccc4)cc3)nc2c1	6	21
COc1ccc(S(=O)(=O)Oc2cccc(CN(CCN(C)C)C(C)=O)c2)cc1	-3	4
C=C(C)C(=O)Oc1cccc(N2C(=O)CCC2=O)c1	2	0
CCN(CC(=O)N1CCNC(=O)C1)C(C)c1ccc(C#N)cc1 (centres undefined)	0	-1
O=C1Nc2ccc(Cl)cc2[C@@](C#CC2CC2)(C(F)(F)F)O1	-10	-12
CC(=O)Nc1ccccc1C(=O)N1CCN(C)CC1	18	11
COC(=O)c1cc2c3cc(Br)c(Br)cc3n(C)c2s1	2	1
COc1cc(OC)nc(NN=C(c2ccccc2)c2ccccc2)n1	-1	6
Cc1ccc(O)c(S(=O)(=O)N2CCCc3cc(F)c(F)cc32)c1	3	-1
c1cc2c(cc1-c1csc(Cc3nnc4n3CCCCC4)n1)CCC2	2	5
COc1cccc(Cn2c(=O)c(C(=O)NCc3cccnc3)nn(-c3cc(C)cc(C)c3)c2=O)c1	-3	3
COc1ccccc1-n1c(Cc2ccccc2)nnc1SCc1nc(C(=O)NCCc2ccc(Cl)cc2Cl)cs1	-3	-2
Cc1ccc2c(c1)C(N1CCN(C)CC1)=Nc1cccnc1N2	-2	0
Cc1cccc(NC(=O)N2CCN(C(=O)N3CCCCC3)CC2)c1	-1	20
CCn1c(C2CCNCC2)nn(CCN2CCN(c3ccccc3)CC2)c1=O	16	8
N#Cc1ncn(CCn2nc3ccccn3c2=O)n1	2	0
CCOC(=O)N1CCN(C2CCCN(C(=O)CCN3CCCO3)C2)CC1 (centres undefined)	2	0
CSc1ccc(OCCN2CCOC(c3ccc(F)cc3)C2)cc1 (centres undefined)	-6	-5
Cc1oc(-c2cccc(C(F)(F)F)c2)nc1CN(CCO)CCO	-7	-12
Cc1ccc2nc(CNc3nccc(CCC(F)(F)F)n3)cn2c1	12	5
CCOC(=O)N1CCN(Cc2nc(NC(C)c3ccc(F)cc3)c3ccccc3n2)CC1 (centres undefined)	17	4
Cc1sc2ncnc(SC(C)C#N)c2c1C (centres undefined)	-1	-4

The list goes on (2 carried over from the part before).
SMILES	NPYLR7 ag	NPYLR7 ag max-min
CCOC(=O)N1CCN(Cc2nc(NC(C)c3ccc(F)cc3)c3ccccc3n2)CC1 (centres undefined)	17	4
Cc1sc2ncnc(SC(C)C#N)c2c1C (centres undefined)	-1	-4
c1nncn1N=C1CCCCCC1	7	6
CCc1nc2c(OCC3CCCCC3)cccn2c1N(C)C(=O)c1ccccc1F	-6	-8
Cc1nc2c(ccc3nc(Nc4nc5cc6c(cc5s4)OCO6)sc32)s1	2	-1
CCOC(=O)CCC(=O)N1CCC2(CC1)C(=O)N(CC(=O)NCCOC)CN2c1ccccc1	26	26
COc1cc(=O)n(-c2ccccc2C)nc1C(=O)Nc1ccc(N(C)C)cc1	16	15
CCc1nc2ccc(C(=O)Nc3cccc(OCC(=O)N(C)C)c3)cn2c1N(CC)CCOC	-5	-8
Cc1cc(C)c2[nH]c(=O)c(-c3c(-c4ccccc4)ncn3CCCO)cc2c1	6	4
Cc1nccn1CCC(=O)NC(C)c1ccc2c(c1)CCCC2 (centres undefined)	4	2
CC(=O)NCC1=CCCN(Cc2nccn2C(C)C)C1	4	2
O=C(NCC1CCCO1)c1coc(CN(Cc2cccc(C(F)(F)F)c2)Cc2ccccc2Cl)n1 (centres undefined)	-7	8
CC(C)CNC(=O)c1ccc(CSc2nnc(Cc3ccccc3)n2Cc2ccccc2)cc1	-2	9
CN=c1scc(-c2cc(OC)c(OC)c(OC)c2)n1N=Cc1cc(OC)c(OC)c(OC)c1	1	-2
O=c1[nH]c(=O)n(-c2ccc(Cl)cc2)c(O)c1C=NC(CO)(CO)CO	-5	-10
CN1CCC(N2CCCC(NC(=O)c3ccccc3N3CCCC3)C2)CC1 (centres undefined)	13	-1
Cc1ccc(CN2CCNC(=O)C2CC(=O)NC2CCCCCC2)o1 (centres undefined)	0	0
CCN1C(=O)C(C)SC1=C(C#N)C(=O)NCc1ccco1 (centres undefined)	-2	-7
Cc1ccccc1C1(O)CCN(Cc2c(C)n(C)n(-c3ccccc3)c2=O)C1 (centres undefined)	3	1
COc1ccc(S(=O)(=O)N(CC(=O)NC2CCCCC2)c2ccc(C)cc2)cc1OC	6	5
Cc1cc2ncn(CC3CCN(Cc4ccccn4)CC3)c2cc1C	-2	-4
COc1ccc(CCN(C)c2cc(C)nc(SCc3ccc(C(=O)NCc4cccnc4)o3)n2)cc1OC	-1	0
COC[C@H]1C[C@H]2C[C@@H](O)[C@H](N(C)CCN(C)C)[C@]2(O)CO1	2	6
C=CCN(CC(=O)N1CCc2sccc2C1COc1ccc(Cl)cc1)C(=O)c1ccco1 (centres undefined)	13	11
COc1ccccc1CCNC(=O)c1ccccc1N1CCC(NC(=O)NC(C)(C)C)CC1	1	9
Cc1ccc2nc(C)c(NC(=O)c3ccccc3Br)c(=O)n2c1	3	2
Cc1ccc(NS(=O)(=O)c2ccc(C)c(F)c2)c(C(=O)O)c1	-2	-4
(list continues)
SMILES	NPYLR7 ag	NPYLR7 ag max-min
O=C(/C=C/c1cccc(Cl)c1)N1CCCS1(=O)=O	16	7
Cc1cc(C(=O)O)ccc1-c1cc(NCc2ccccn2)nc2[nH]ccc12	19	16
O=S(=O)(CCN1CCOCC1)OCC(F)(F)C(F)F	1	-1
CCc1nn2c(ncc3c(=O)n(-c4n[nH]c(C)n4)ccc32)c1-c1ccccc1	4	10
O=C(Cn1cc2c(n1)CCCCC2)Nc1c(F)c(F)c(F)c(F)c1F	3	2
COC(=O)c1c(NC(=O)CN2CCCCC2)sc2c1CCC2	9	2
CSc1ccc(CN2CCC2(C)C(=O)NCc2ccc3c(c2)OCO3)cc1 (centres undefined)	-2	-2
CNC(=O)CN(C(=O)Cc1cccc(OC)c1)[C@@H]1C[C@@H]2CO[C@H](C(C)C)C[C@@H]2C1	17	15
CCOc1c(Br)cc(C=C(C#N)c2ccc([N+](=O)[O-])cc2)cc1OC	1	5
COc1cc(-c2nc3ccc(Br)cn3c2NC(C)(C)CC(C)(C)C)ccc1OC(=O)c1ccc(F)cc1	-4	-1
COc1cc(C=C(C#N)S(C)(=O)=O)cc(Cl)c1OC(F)F	12	5
CCC(=O)Nc1ccc(N(C)C)c(CN(Cc2ccco2)C(=O)c2ccc(OC)cc2)c1	4	10
O=C(NCc1ccc2ccccc2c1-c1ccccc1)c1cccnc1Oc1ccc(Cl)cc1	-6	-9
N#CCCN(Cc1ccccc1)C(=O)Nc1ccc(Cl)c(C(F)(F)F)c1	1	-4
COC(=O)c1ccc(N2C(=O)CC(NCCc3ccc(S(N)(=O)=O)cc3)C2=O)cc1 (centres undefined)	3	0
CC(C)(C)c1ccc(C(=O)N2N=C(c3cccnc3)CC2(O)C(F)(F)F)cc1 (centres undefined)	-3	-10
O=C(c1cn(Cc2ccc(F)cc2Cl)nn1)N1CCN(c2cnccn2)CC1	6	-3
CCCc1c(C(=O)N2CCCC2)c(C2CC2)nn1-c1ccc(C)cc1	-1	3
CC(=O)Oc1c(-c2ccc(N)cc2)c(C(C)C)nn1-c1cccc(C)c1	6	7
COCCC(=O)Nc1ccc2c(c1)CN(C(=O)CCOC)CC2	15	11
COc1ccc(CN(C(C)=O)C2CC(=O)N(c3ccc(Cl)cc3)C2=O)cc1 (centres undefined)	-1	-3
COCCCn1c(CN(C)Cc2nc3ccc(Cl)cc3[nH]2)cnc1S(C)(=O)=O	6	4
CCOC(=O)c1sc(N)c(C(=O)OCC)c1C	3&2	2&1
NC(=O)CCN(CCN1C(=O)c2ccccc2C1=O)Cc1ccccc1	8	6
Cc1cc(=O)c(C(=O)N2CCN(C(C)C(=O)N3CCCCC3)CC2)nn1-c1ccccc1 (centres undefined)	4	3

Overlap with the part before: two compounds; new compounds follow.
SMILES	NPYLR7 ag	NPYLR7 ag max-min
NC(=O)CCN(CCN1C(=O)c2ccccc2C1=O)Cc1ccccc1	8	6
Cc1cc(=O)c(C(=O)N2CCN(C(C)C(=O)N3CCCCC3)CC2)nn1-c1ccccc1 (centres undefined)	4	3
Cc1ccccc1C(C)NC(=O)Cc1c(C)noc1C (centres undefined)	2	2
CS(=O)(=O)N1CCC(c2nnc(C3CC3)s2)CC1	-6	-5
Cc1nc2scc(C)n2c(=O)c1NC(=O)c1ccccc1F	13	4
CC(C)(C)c1ccc(C(=O)Nc2ccc(N3CCCC3)c(C(=O)NCCc3ccccc3)c2)cc1	7	10
C=C[C@]1(C)C[C@@H](OC(=O)CSC2C[C@H]3CC[C@@H](C2)N3C)[C@]2(C)[C@H](C)CC[C@]3(CCC(=O)[C@H]32)[C@@H](C)[C@@H]1O (some centres undefined)	5	-5
Cc1cccc(CS(=O)CC(=O)N2CCC(c3ccccc3)=N2)c1 (centres undefined)	2	0
CCc1c(C)nc(-n2nc(C)cc2C)n(CC(=O)NCc2ccc(C)cc2)c1=O	-1	-3
CC(C)(C)CC(=O)Nc1nc2c(s1)C(=O)CC(C)(C)C2	7	4
Cc1cccc(-n2nc(C(C)(C)C)cc2NC(=O)CN(Cc2ccccc2)C(=O)Nc2ccccc2C)c1	-3	9
Cc1noc(C)c1C1CCCN1Cc1ccc(S(C)(=O)=O)cc1 (centres undefined)	8	3
O=C(COC(=O)C1CC1c1ccccc1F)NCC1Cc2ccccc2O1 (centres undefined)	15	11
Cc1ccc(-c2oc(NC(=O)CCl)c(C#N)c2-c2ccc(C)cc2)cc1	-5	-8
CCCCNC(=O)C1(C)CCN1C(=O)c1ccc2sccc2c1 (centres undefined)	-7	-7
CC(C)N1CCN(CCn2cnc(-c3ccccc3)c2-c2ccsc2)CC1	1	13
O=C(NC1CCN2CCCCC12)N1CCCC1c1cccs1 (centres undefined)	-3	-4
Cc1ccc(CCC(=O)N2CCC(C(=O)Nc3ccc4c(c3)OCO4)CC2)c(C)c1	-6	-7
Cc1ccc2c(CC(=O)NCC3CCC4(CCN(Cc5ccccc5)CC4)O3)cc(=O)oc2c1 (centres undefined)	14	5
O=CNc1ccccc1Oc1c(F)c(F)c(F)c(F)c1F	-14	-23
COc1ccc(C(=O)Oc2coc(CSc3nncn3C)cc2=O)cc1	-2	-7
Cc1ccc(C2=CCN(C(=O)c3cc(S(N)(=O)=O)ccc3C)CC2)cc1	9	2
CCOc1cccc(N2CCN(C(=O)COC)C(C)C2=O)c1 (centres undefined)	25	27
Cc1nc2n(n1)C(=O)C(C(c1ccccc1F)N1CCN(c3ccccc3)CC1)S2 (centres undefined)	4	5
CC(C)C(NC(=O)c1ccccc1)C(=O)N(C)CCCC(=O)O (centres undefined)	-6	-11
CC1CCC2(CC1)OCC(C(=O)NCC1CCCO1)N2C(=O)c1ccc(C(F)(F)F)cc1 (centres undefined)	-4	6
Cc1ccc(NC(=O)N(CC(=O)N(CCc2ccccc2)Cc2ccc(C)o2)Cc2ccco2)cc1	1	5
(continued)
SMILES	NPYLR7 ag	NPYLR7 ag max-min
CC(C)CN1CCN(c2nc(CCN)nc3ccccc23)CC1	5	2
COc1ccc(C)cc1C(C)NC(=O)CCn1ncc(=O)c2ccccc21 (centres undefined)	3	-2
COC(=O)NCc1nnnn1C1CCCCC1	0	-1
Cc1ccoc1C(=O)NCC1CCN(Cc2cnn(C(C)C)c2)C1 (centres undefined)	4	2
O=C(Oc1cc2oc3ccccc3[nH]c2c2c(=O)c3ccccc3c(=O)c12)c1ccccc1	-8	-12
COc1cc(C(=O)n2nc(C)c(Sc3ccccc3)c2C)cc(OC)c1OC	6	11
CN(CCc1ccccn1)C(=O)Nc1ccccc1	12	7
COc1ccc(CCN(Cc2ccc(C)o2)C(=O)CN(C(=O)c2ccccc2Cl)C2CC2)cc1OC	6	-5
COC(=O)C(CC(C)C)NC(=O)Cn1cnc2ccc([N+](=O)[O-])cc2c1=O (centres undefined)	16	6
CCOC(=O)CN1C(=O)c2ccccc2NC12CCN(Cc1ccc(-c3ccccc3Cl)o1)CC2	-1	23
Cn1c(SCCC(=O)NC(=O)Nc2ccc3c(c2)OCO3)nnc1C(F)(F)F	-2	-1
c1cnc(N2CCN(C3CCC4(CCNCC4)CC3)CC2)cn1	-3	-2
Cc1ccc(CSc2ccc(-c3ccco3)nn2)cc1	5	-6
c1ccc(-c2noc3nc(NCCN4CCCC4)ccc23)cc1	16	12
COc1cc(-c2ccc3c(c2)COC2(CCN(C(=O)Nc4c(C)noc4C)CC2)O3)cc(OC)c1OC	9	11
C/C(=C/C(=O)N1CCN(C(=O)c2ccc3nc[nH]c3c2)CC1)C1CC1	7	4
Cc1cccc(Nc2ncnc3c2nnn3C)c1	11	5
CCOC(=O)c1c(NC(=O)c2c(-c3ccccc3)noc2C)sc2c1CCN(c1ccc(Cl)nc1)C2	12	7

Pulled by compound from above:
SMILES	NPYLR7 ag	NPYLR7 ag max-min
c1ccc(-c2noc3nc(NCCN4CCCC4)ccc23)cc1	16	12
Cc1ccc(CSc2ccc(-c3ccco3)nn2)cc1	5	-6
CN(CCc1ccccn1)C(=O)Nc1ccccc1	12	7
CC(C)CN1CCN(c2nc(CCN)nc3ccccc23)CC1	5	2
Cc1cccc(Nc2ncnc3c2nnn3C)c1	11	5
CCOC(=O)CN1C(=O)c2ccccc2NC12CCN(Cc1ccc(-c3ccccc3Cl)o1)CC2	-1	23
C/C(=C/C(=O)N1CCN(C(=O)c2ccc3nc[nH]c3c2)CC1)C1CC1	7	4

Compound activity as filed in PubChem BioAssay.
